# NS1 inh: qHTS Assay for Inhibitors of Influenza NS1 Protein Function | S. cerevisiae slowed by influenza A NS1, growth recovery by OD600 | Potency, µM (series often up to 46.1 µM), inactives show at the highest dose activity, positive = more growth | 0.4% of 270,000 active | AID 2326, 2010; active means well fitted rising curve with a large enough effect; inconclusive means small, poorly fitted or top-dose-only effect; inactive means no such curve, though single readings can be large or run the other way; also: nearly all actives have a fitted effect of over 50% in size
#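 Recovery from NS1-induced slow growth read by OD600 in budding yeast switched to galactose assay medium (pH 6.0, -URA) at 1:100 dilution. Compound 23 nl per well; the matching strain lacking NS1 serves as control.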
# SARS PLP yeast: qHTS of Yeast-based Assay for SARS-CoV PLP | S. cerevisiae expressing SARS-CoV PLpro, growth rescue; control for the full effect not named in the record | Potency, µM (series often up to 32.9 µM), inactives show at the highest dose activity, positive = growth rescue | 0.19% of 330,000 active; active means well fitted rising curve with a large enough effect; inconclusive means small, poorly fitted or top-dose-only effect; inactive means no such curve, though single readings can be large or run the other way; also: 0% is about no effect; nearly all actives have a fitted effect of over 55% in size; growth read by luminescence after 48 h
# StopGo reporter: High Throughput Screening for Foot and Mouth Disease Virus Antivirals | Potency, µM (doses to about 57.9 µM), without a hit: top-dose signal change, negative = less light | 1.2% of 410,000 active | human cells with a luciferase reporter of 2A StopGo recoding; control for the full effect not named in the record | AID 1159524, 2015; active = well fitted falling curve with a large enough effect; inconclusive = small, poorly fitted or top-dose-only effect; inactive = no such curve, though single readings can be large or run the other way; tested in HEK293T cells; also: % is scaled to controls: 0 for no effect and ±100 for the full control effect; nearly all actives have a fitted effect of over 45% in size; luciferase light after 4 h
# RE007 growth inh: qHTS Assay for Inhibitors of the HIV-1 protein Vpr; S. pombe RE007 Vpr strain, BacTiter-Glo ATP luminescence, 24 h; control for the full effect not named in the record; Potency, µM (top dose mostly 92.2 µM), inactives show at the top dose activity change, negative = less growth; 0.21% of 360,000 active; active = well fitted falling curve with a large enough effect; inconclusive = small, poorly fitted or top-dose-only effect; inactive = no such curve, though single readings can be large or run the other way;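 also: % is scaled to controls: 0 for no effect and ±100 for the full control effect; nearly all actives have a fitted effect of over 50% in size; the assay follows cell death caused by Vpr and the record does not say whether a fall means rescue or toxicity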
#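 Fission yeast strain RE007, carrying one chromosomally integrated HIV-1 vpr copy, was seeded at OD 0.01 in PMG+AL medium with 23 nL pinned compound. After 24 h at 30 °C and 99% humidity, viability was read by BacTiter-Glo luminescence.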
# LASV entry inh: qHTS for Inhibitors of binding or entry into cells for Lassa Virus; AID 540256, 2011; Potency, µM (top dose mostly 37.9 µM), for the others: at the top dose activity change, negative = inhibition, most hits filed as inhibitors; 1.2% of 300,000 active; Lassa virus pseudotype entry inhibition, cell reporter; control for the full effect not named in the record; active means well fitted inhibition curve with a large enough effect; inconclusive means small, poorly fitted or top-dose-only effect, or effect the other way; inactive means flat fitted curve, though single readings scatter; tested in HEK293 cells; also: % is scaled to controls: 0 for no effect and ±100 for the full control effect; nearly all actives have a fitted effect of over 50% in size; luciferase read-out
# Cruzain Triton: qHTS Assay for Promiscuous and Specific Inhibitors of Cruzain (with detergent); purified cruzain, Z-FR-AMC fluorescence, 0.01% Triton; AID 1478, 2009; 0.43% of 200,000 active; Cruzipain (Trypanosoma cruzi), P25779; Potency, µM, inactives show max response, negative = inhibition, usual class: inhibitors;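 also: plate controls were neutral wells for no effect and buffer without enzyme for full effect; nearly all actives have a fitted effect of over 40% in size; top concentration of the series not given in the record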
# Target sequence (P25779 123-467 limits assumed): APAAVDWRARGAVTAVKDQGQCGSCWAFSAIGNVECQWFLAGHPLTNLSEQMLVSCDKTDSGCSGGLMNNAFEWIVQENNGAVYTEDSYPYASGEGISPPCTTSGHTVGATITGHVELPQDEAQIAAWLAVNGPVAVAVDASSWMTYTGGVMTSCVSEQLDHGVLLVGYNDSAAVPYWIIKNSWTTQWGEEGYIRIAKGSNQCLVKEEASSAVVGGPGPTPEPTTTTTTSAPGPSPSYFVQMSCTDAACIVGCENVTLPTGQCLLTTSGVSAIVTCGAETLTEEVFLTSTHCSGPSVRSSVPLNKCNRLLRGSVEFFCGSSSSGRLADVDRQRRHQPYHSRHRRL
#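 Z-FR-AMC hydrolysis (2 uM substrate) by cruzain (1.5 nM) monitored kinetically at ex 360/em 450 nm after 15 min room-temperature compound exposure; 0.01% Triton X-100, pH 5.5, 5 mM DTT.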
# Cruzain noTriton: qHTS Assay for Promiscuous and Specific Inhibitors of Cruzain (without detergent); 2.3% of 200,000 active; AID 1476, 2009; Cruzipain (Trypanosoma cruzi), P25779; purified cruzain, Z-FR-AMC fluorescence, no detergent; Potency, µM, for the others: max response, negative = inhibition, most hits filed as inhibitors;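 also: plate controls were enzyme without inhibitor for no effect and buffer without enzyme for full effect; nearly all actives have a fitted effect of over 40% in size; top concentration of the series not given in the record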
#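 Purified cruzain at 1.5 nM, pre-incubated 15 min with compound at room temperature in 100 mM sodium acetate pH 5.5, 5 mM DTT, 0.00005% Triton X-100. Reaction started with 2 uM Z-FR-AMC; AMC fluorescence increase over 60 s gives rate.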
# Marburg entry inh: qHTS for inhibitors of binding or entry into cells for Marburg Virus. Marburg virus pseudotyped entry inhibition, cell reporter; control for the full effect not named in the record; about a third of the inactives were read at about 46 µM. Potency, µM (titrated, usually from 37.8 µM), inactives show at the highest dose activity change, negative = inhibition, hits mostly inhibitors. 1.8% of 300,000 active. AID 540276, 2011; active = well fitted inhibition curve with a large enough effect; inconclusive = small, poorly fitted or top-dose-only effect, or effect the other way; inactive = flat fitted curve, though single readings scatter; tested in HEK293 cells; about a fifth of its hits are not listed in these tables; also: % is scaled to controls: 0 for no effect and ±100 for the full control effect; luciferase read-out
# Numbers without * were called inactive; ? = inconclusive; . = not tested or not shown; & = joins results of further samples; [ ] = dose if it differs, or a comment. Unless noted, calls follow the shape of the dose curve; as a rule, active = well fitted curve in the direction sought with a large enough effect; inconclusive = small, poorly fitted or top-dose-only effect, or another doubt; inactive = no such curve, though single readings can be large; an effect the other way counts as inactive or inconclusive. Potency is read from the fitted curve at half-maximal effect.
# Screens in order – NS1 inh, SARS PLP yeast, StopGo reporter, RE007 growth inh, LASV entry inh, Cruzain Triton, Cruzain noTriton, Marburg entry inh
Cc1cccc(C(=O)NC(=S)Nc2ccc(S(=O)(=O)N3CCCCC3)cc2)c1
  5%, -1%, 0%, 26%, -9%, 2.1%, -10%, 4%
O=C(Nc1cccc(C(=O)N2CCCC2)c1)c1ccccc1
  15%, -1%, 0%, -12%, -18%, 8.3%, 1%, -2%
COc1ccc(C2CC(c3ccccc3)=NN2C(=O)COC(=O)CNC(=O)c2ccccc2)cc1 (stereo not given)
  17%, -1%, -5%, 9%, -13%, 8.9µM*, 10µM*, 0%
CCO[C@H]1OC(C(=O)N2CCOCC2)=C[C@@H](C)[C@@H]1CCCO
  -2%, -2%, 0%, 9%, ., ., ., .
Cc1ccc(S(=O)(=O)N2CCc3cc(C(=O)Nc4ccc(C)c(C)c4)ccc32)cc1
  ., ., -8%, ., -1%[46.1 µM], -3.1%, ?, -13%[46.1 µM]
O=C(NCc1ccco1)C(=O)NCC1OCCCN1S(=O)(=O)c1ccc(F)cc1 (stereo not given)
  ., 0%, -18%, 0%, 0%, ., ., -15%
Cc1ccc(C)c(S(=O)(=O)N2CCN(C(=O)CCC(=O)c3cc(C)sc3C)CC2)c1
  ., 0%, ?, -9%, ?, ., ., -30%
O=Nc1c(-c2ccccc2)cc2ccccn12
  10%, -20%, 40%[activator], 13µM*, ., ., ., .
CC(C)=CCN1CCN(Cc2cn(C(C)C)c3ccccc23)CC1CCO (stereo not given)
  11µM*, 10%, -9%, 1%, ., ., ., .
Cn1c(=O)oc2cc(S(=O)(=O)N3CCC(C(=O)N4CCN(c5ccc(Cl)cc5)CC4)CC3)ccc21
  ., ., ?, ., 2%[46.1 µM], -3.3%, ?, -8%[46.1 µM]
Cc1c(Cl)cccc1NC(=O)c1cccc(NC(=O)N2CCSc3ncccc32)c1
  ., ., ?, ., ?, -9.9%, 4%, .
CCc1ccccc1NC(=O)c1cc(S(=O)(=O)NC2CCCC2)ccc1F
  ., ., 21%, ., -4%[46.1 µM], 0.6%, 1%, .
COc1cccc(-c2c(C(=O)N/N=C(\C)c3ccco3)nnn2-c2nonc2N)c1
  5%, -9%, -21%, -4%, ., ., ., .
Cc1ccc(N(CC(=O)NCCSCc2ccco2)S(C)(=O)=O)cc1
  6%, 2%, ., -3%, 0%, 4.5%, 10%, 17%
COc1ccc(S(=O)(=O)N2CCOCC2)cc1Br
  1%, 0%, -13%, 49%, 2%[46.1 µM], ., ., 20%[46.1 µM]
CCOc1cc(-c2nc(-c3ccccc3OC)no2)cc(OCC)c1OCC
  -19%, -2%, ?, -7%, ?, -9.7%, ?, ?
O=C(CSc1nnc(NC(=O)c2ccc(F)cc2F)s1)NC1CCCC1
  1%, 1%, 37%[activator], -5%, -28%, ., ., -3%[46.1 µM]
CCN(CC)CCNC(=O)c1nn(-c2ccc(C)cc2)c(=O)c2c1c1ccccc1n2C
  -14%, -6%, 8%, 24%, ?, -1.5%, 3%, ?
C=CCn1c(C)c(C(C)=O)c(N2CCN(C(c3ccccc3)c3ccccc3)CC2)nc1=S
  ., 5%, ?, -10%, ?, ., ., ?
CC(=O)Nc1cccc(NC(=O)c2ccccc2OCc2ccccc2)c1
  -3%, -4%, ?, 10%, ?, ., ., -22%[46.1 µM]
Cc1[nH][nH]c(=O)c1C(c1ccc(Br)cc1)c1c(C)[nH][nH]c1=O
  3%, -7%, -3%, 1%, 28%[46.1 µM], ., ., 1%[46.1 µM]
CCOC(=O)[C@@H]1CCN(Cc2ccccc2)C[C@H]1c1ccccc1
  -2%, 0%, -25%, -3%, -5%, ., ., ?
CN1CCC(=NNC(=O)CSc2ccc(Cl)cc2)CC1
  1%, 0%, 3%, -8%, ?, ., ., 4%[46.1 µM]
O=C(O)c1ccc(NS(=O)(=O)c2ccc(Cl)c(Cl)c2)cc1O
  7%, 3%, -6%, -10%, 0%, -6.1%, -12%, 10%[46.1 µM]
COc1ccc(Nc2ncc(C(=O)Nc3cc(Cl)c(OC)cc3OC)c3ccccc23)cc1
  ., ., -18%, ., -2%[46.1 µM], -12%, ?, -3%[46.1 µM]
c1ccc(C2Nc3ccccc3-c3nc4ccccc4n32)cc1 (stereo not given)
  -125%, -25%, 14%, -13%, ?, -1.4%, ?, ?
CCOC(=O)c1sc(NC(=O)CSc2nncs2)c(C(=O)OCC)c1C
  -42%, -3%, -9%, -9%, 4%, -8.9%, ?, ?
Cc1nn(-c2ccccc2)c2c1P(=O)(O)/C(=C1\N(C)c3ccccc3C1(C)C)C=N2
  ?, -8%, ., 9%, -3%, -9.2%, ?, ?
Cc1ccc(-c2cc(C(=O)N(C)CC(=O)Nc3ccccc3Br)c3ccccc3n2)o1
  ., 1%, 2%, -6%, -17%, ., ., ?
COC(=O)CSc1cc(C(=O)c2nccn2C)c2ccccc2n1
  -13%, 7%, -3%, 0%, 3%, -0.9%, 4%, 21%
Cc1cccc(C(=O)NCC(c2ccco2)S(=O)(=O)c2cccs2)c1 (stereo not given)
  ., ., -4%, ., 3%[46.1 µM], -1.8%, 4%, .
CCC(C)c1ccccc1NC(=O)CN1CCN(C/C=C/c2ccccc2)CC1 (stereo not given)
  -16%, -2%, -23%, -15%, -15%, -0.4%, 2%, ?
O=S(=O)(/N=C(/Nc1ccc(Cl)c(S(=O)(=O)N2CCOCC2)c1)c1ccc(F)cc1)c1ccccc1
  5%, ?, 25%, -8%, ?, ., ., ?
CS(=O)(=O)c1ccc(NS(=O)(=O)c2ccc3ccccc3c2)cc1
  -5%, 6%, 22%, 1%, 0%[46.1 µM], ., ., -18%[46.1 µM]
C=CCNC(=S)NNC(=O)CSc1nc2ccccc2s1
  -3%, 28%, -5%, 6%, 8%, -2.6%, -1%, 17%
CC1CCCCC1NC(=O)CCCn1c(=S)[nH]c2ccsc2c1=O (stereo not given)
  -1%, 0%, 15%, 0%, ., ., ., .
CCOC(=O)Cc1csc(NC(=O)c2cc(C)c(C)s2)n1
  ., -10%, -15%, -1%, 5%, ., ., ?
Cc1ccc2nc3nc(NCC4CCCO4)c(C(=O)NC4CCCC4)cc3c(=O)n2c1 (stereo not given)
  17%, 8%, -4%, -4%, 0%, -17%, 12%, 1%
CCN(CC)Cc1c(O)c(Cl)cc2c3c(c(=O)oc12)CCCC3
  ?, -6%, -26%, -1%, -1%, ?, -22%, 2%
COCCn1c(SCC#N)nnc1-c1ccccc1
  -20%, 4%, -9%, 14%, -4%, 5.0%, 1%, 3%
CCC(=O)N1CCc2cc(CNC(=O)Nc3cc(Cl)ccc3C(=O)OC)ccc21
  ., ., -23%, ., -1%[46.1 µM], -2.9%, 15%, .
CCOC(=O)c1c(NC(=O)COC(=O)c2nc(Cl)ccc2Cl)sc2c1CCC2
  5%, -1%, -9%, 7%, 13%, -2.6%, -28%, -12%
Cc1ccn(CCSCC(=O)O)n1
  -3%, 2%, 18%, 11%, 13%, 3.3%, -10%, -2%
CCOC(=O)c1ccsc1NC(=O)CCS(=O)(=O)c1ccccc1
  -6%, 4%, -7%, -6%, -5%, ., ., -16%
CN1CCN(NC(=O)Nc2ccc(Br)cc2Cl)CC1
  1%, 7%, 14%, 0%, -2%[46.1 µM], ., ., ?

# Four structures already listed, sorted by length of the SMILES, falling:
# Screens in order – NS1 inh, SARS PLP yeast, StopGo reporter, RE007 growth inh, LASV entry inh, Cruzain Triton, Cruzain noTriton, Marburg entry inh
CCC(=O)N1CCc2cc(CNC(=O)Nc3cc(Cl)ccc3C(=O)OC)ccc21
  ., ., -23%, ., -1%[46.1 µM], -2.9%, 15%, .
CCc1ccccc1NC(=O)c1cc(S(=O)(=O)NC2CCCC2)ccc1F
  ., ., 21%, ., -4%[46.1 µM], 0.6%, 1%, .
CN1CCN(NC(=O)Nc2ccc(Br)cc2Cl)CC1
  1%, 7%, 14%, 0%, -2%[46.1 µM], ., ., ?
COc1ccc(S(=O)(=O)N2CCOCC2)cc1Br
  1%, 0%, -13%, 49%, 2%[46.1 µM], ., ., 20%[46.1 µM]

# Remaining list, next part:
# Screens in order – NS1 inh, SARS PLP yeast, StopGo reporter, RE007 growth inh, LASV entry inh, Cruzain Triton, Cruzain noTriton, Marburg entry inh
O=S(=O)(c1c(F)cccc1F)N1CCN(C(=S)NCc2ccc3c(c2)OCO3)CC1
  11%, -2%, 36%[activator], -6%, -6%[46.1 µM], ., ., 14%[46.1 µM]
Cc1cc(N2CCCN(C)CC2)nc2cc(Cl)ccc12
  -12%, ?, 12%, -7%, -31%, 1.3%, -14%, ?
Cc1ccc(CCNC(=O)C2CC(=O)N(CCc3ccccc3)C2)cc1 (stereo not given)
  -16%, -1%, -11%&-9%, -7%, 20%[46.1 µM], 0.4%, -5%, .
COc1ccccc1CNC(=O)Cn1ncc2c3ccccc3n(Cc3ccccc3C)c2c1=O
  ., ., -3%, ., 0%[46.1 µM], -0.5%, 17%, -14%[46.1 µM]
COc1cccc(Nc2nnc(SCc3cc([N+](=O)[O-])cc4c3OCOC4)s2)c1
  14%, ?, 16µM*, -12%, -12%, 3.6%, ?, -19%
Cc1ccc(NC(=O)CCS(=O)(=O)c2ccc3nc(C)sc3c2)c(C)c1
  ., ., -15%, ., 17%[46.1 µM], 2.5%, 1%, .
O=C(NCc1ccc(Cl)cc1)c1cnc(N2CCOCC2)c2ccccc12
  ., ., -5%, ., 12%[46.1 µM], -2.9%, 12%, .
Cc1oc(-c2ccccc2Cl)nc1CSCC(=O)NC1CCCC1
  -48%, -14%, -14%, 25%, -13%, -0.5%, 1%, -13%[46.1 µM]

# Source: PubChem BioAssay (National Center for Advancing Translational Sciences (NCATS))

# Rows were taken by chance. About 4.7% of those tested had a hit in this group.
